Calb FLC – C. albicans growth modulation with fluconazole | C. albicans CaCi-2 (fluconazole-resistant clinical isolate) + fluconazole, Alamar Blue growth, 48 h | growth inhibition, % (concentration not given with the values) | 300,000 tested, 0.57% active;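 active = most replicates above 75%; inconclusive = exactly half above 75%; inactive = most below 75%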;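 also: all wells also contain fluconazole at 8 µg/ml as a sub-toxic cotreatment; 0% = median of DMSO wells and 100% = median of geldanamycin control wells; wells of about 8 µL received 7.5 nL stock; the first replicate is given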
RanGTP-Imp inh – inhibitors of RanGTP-importin-beta interaction, primary screen, biochemical, FRET, CFP-Ran, YFP-importin-beta, homogeneous; cell-free CFP-Ran/YFP-importin-beta FRET ratio; inhibition, % (no concentration beside the values); 300,000 tested, 1.1% active;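 active = most replicates above 15%; inconclusive = exactly half above 15%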;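 also: 0% = DMSO wells and 100% = Ran loaded with GDP instead of GTP; wells of about 40 µL received 100 nL stock; the first replicate is given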
Beta apoptosis – beta cell apoptosis inhibition. 300,000 tested, 0.8% active. protection from apoptosis, % (no concentration beside the values). INS-1E cytokine-induced death, ATP luminescence, 48 h; percent of positive-control rescue, neutral wells zero;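 active = all replicates at 75% or more, or half of them and the mean; inconclusive = half reach 75% but not the mean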;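 also: 0% = cytokine-treated negative control wells and 100% = positive control rescue; higher means more ATP so stronger rescue from cytokine killing; wells of about 40 µL received 100 nL stock; the first replicate is given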
AF4-AF9 inh – inhibitors of human MLL-AF4/AF9 interaction; AlphaScreen, biotin-AF4 peptide binding to FLAG-AF9; 350,000 tested, 0.47% active; P42568; inhibition, % at 10 µM;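 active = every replicate reaching a set inhibition limit, whatever the replicate mean, cut at about 25% in these data; inconclusive = mean inhibition reaches that limit but some replicates miss it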;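 also: 0% = plate neutral control median and 100% = total signal loss; the record names both 10 and 1 µM as test concentration; the first replicate is given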
Target sequence (P42568 whole entry, looked up): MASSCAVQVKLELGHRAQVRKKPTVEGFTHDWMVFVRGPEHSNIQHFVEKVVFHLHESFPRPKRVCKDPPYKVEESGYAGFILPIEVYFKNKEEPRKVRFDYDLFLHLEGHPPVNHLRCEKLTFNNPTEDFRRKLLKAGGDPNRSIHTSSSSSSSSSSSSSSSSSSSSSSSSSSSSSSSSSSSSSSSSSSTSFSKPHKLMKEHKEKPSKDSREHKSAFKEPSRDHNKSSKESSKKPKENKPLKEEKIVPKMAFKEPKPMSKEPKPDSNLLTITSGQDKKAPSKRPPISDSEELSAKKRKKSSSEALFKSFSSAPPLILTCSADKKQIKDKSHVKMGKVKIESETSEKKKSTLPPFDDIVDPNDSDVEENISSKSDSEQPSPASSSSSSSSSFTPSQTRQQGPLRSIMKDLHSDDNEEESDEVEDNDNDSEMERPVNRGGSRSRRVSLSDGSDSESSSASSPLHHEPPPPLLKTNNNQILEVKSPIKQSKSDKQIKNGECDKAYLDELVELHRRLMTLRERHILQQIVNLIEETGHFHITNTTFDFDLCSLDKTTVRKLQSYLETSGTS
A1 inh – inhibitors of the anti-apoptotic protein A1, read as caspase activation; caspase activation, % (test concentration not listed); 330,000 tested, 0.066% active; AID 2462; MEF A1-2A-BIM cells, Caspase-Glo 3/7 luminescence, 3 h; percent of clofoctol response, vehicle zero;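 active = over half of replicate activation scores above 10%, or exactly half above 10 with the replicate mean above 10; inconclusive = replicate mean below 10 yet half the replicates above 10; inactive = over half of replicates below 10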;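 also: wells of about 30 µL received 50 nL stock; many hits fall short of the cut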
Vif TR-FRET – inhibitors of Vif binding to APOBEC3G peptide, primary screen, biochemical, TR-FRET, GST-Vif 1-94, biotin-A3G peptide, dose response retest (AID 1117319); 260,000 tested, 0.57% active; TR-FRET GST-Vif / biotin-A3G peptide binding; higher % means a stronger effect; test concentration not given here; strong numbers were not always called active; inhibition, %, or IC50 in µM where a hit was titrated;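 active = above the screen mean plus three standard deviations and confirmed in dose response; inconclusive = results disagree or hit not tested in dose response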;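 also: Vif residues 1-94 fused to GST binding biotinylated APOBEC3G peptide 110-148; 0% = full assay without inhibitor and 100% = GST in place of GST-Vif; retest series ran down from 100 µM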
Ecoli rRNA inh – selective bacterial rRNA inhibition in E. coli. GFP signal change (wild-type ribosome), % (concentration not given with the values). 350,000 tested, 1.6% active. E. coli WT GFP vs humanized-ribosome RFP mutants, fluorescence, 24 h; stronger effect = lower value; DMSO median 0, no signal -100;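 active = significant combined selectivity score with lowered wild-type GFP, culture density cut under 30%, mutant RFP and density less affected; inactive = any of these conditions unmet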; also: one replicate is shown; some compounds called inactive have numbers as strong as hits
T cruzi repl – blocks replication of Trypanosoma cruzi; AID 1885; T. cruzi beta-gal in NIH3T3, luminescence, 90 h; inhibition, % (concentration not given with the values); 300,000 tested, 1.4% active;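 active = mean inhibition across valid replicates above about 55%, limit read from the data; inconclusive = mean below that limit but half or more replicates reach it; inactive = mean below it, under half of replicates reach it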;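 also: signal also drops with host cell toxicity which is not excluded here; 0% = plate median of DMSO wells and 100% = zero luminescence signal; higher percent means less beta-gal luminescence so fewer parasites; stock transfer was 50 nL into about 50 µL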
Ecoli rRNA inh OD600 – second read-out of Ecoli rRNA inh, no call of its own (marks repeat the call); OD600 change, %; measured here: OD600 growth;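 optical density of the mix in the first replicate; 0 = DMSO median and -100 = no signal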
Ecoli rRNA inh RFP – recorded beside Ecoli rRNA inh, whose call it bears; RFP signal change, %; measured here: RFP humanized mutant strains;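 first replicate; 0 = DMSO median and -100 = no signal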
Active calls of the source: *; ? = inconclusive; nt = no result given. These rows are one share of the data (hit frequency here may not be typical).

# | Molecule | Calb FLC | RanGTP-Imp inh | Beta apoptosis | AF4-AF9 inh | A1 inh | Vif TR-FRET | Ecoli rRNA inh | Ecoli rRNA inh OD600 | Ecoli rRNA inh RFP | T cruzi repl
1 | O=S(=O)(Nc1ccccc1N1CCOCC1)c1cccs1 | nt | nt | -2.5 | -1.0 | 0.2 | nt | 4.1 | 0.2 | -0.1 | nt
2 | Cc1nn(C)cc1CNCc1ccc(OCC(O)CN(C)Cc2ccccc2)cc1 (centres undefined) | -7.2 | 4.1 | 4.1 | 11.0 | 0.3 | nt | 6.5 | 2.0 | 1.8 | 15.3
3 | O=C(/C=C/c1ccc2c(c1)OCCO2)c1ccc(O)cc1 | 3.3 | -1.9 | -2.5 | 4.8 | -5.5 | -0.4% | -19.8* | -11.6* | 6.7* | 3.3
4 | CCOc1ccc2[nH]c3nc(SCC(=O)NCC4CCCO4)nnc3c2c1 (centres undefined) | -2.2 | -0.8 | 3.2 | -26.3 | 0.6 | nt | -0.1 | 1.8 | -2.1 | 0.6
5 | N#CC1=C(N)OC2=C(C(=O)CCC2)C1c1ccoc1 (centres undefined) | 3.9 | -5.6 | -0.4 | 0.6 | 0.1 | -2.0% | 14.9 | 9.9 | 8.4 | -8.8
6 | CC(C)Oc1cc(N)c(Cl)cc1Cl | -21.4 | 6.4 | -9.1 | -0.1 | 0.5 | 8.4% | 12.7 | 7.8 | -1.2 | -4.1
7 | O=C(NCc1nc(-c2ccc(C(F)(F)F)cc2)no1)Nc1ccc(OC(F)(F)F)cc1 | 3.0 | 4.2 | 0.1 | 0.6 | 0.2 | ? | -24.9 | -7.4 | 0.5 | 24.7
8 | CC(=O)c1c(C)cc(C)c(CSc2ccccn2)c1C | 9.3 | 1.9 | -3.2 | 0.8 | 1.5 | nt | -20.6 | -17.3 | -2.9 | -3.8
9 | Cc1cc2oc(C(=O)N(Cc3ccccc3)C3CCS(=O)(=O)C3)cc(=O)c2cc1Cl (centres undefined) | 9.3 | 0.8 | 10.1 | nt | 0.1 | 3.0% | nt | nt | nt | 21.2
10 | CCc1ccc(C(=O)CSc2nnc(C)c(=O)[nH]2)cc1 | -0.9 | -5.3 | -15.4 | -5.2 | 0.0 | -0.4% | -11.7 | -2.4 | 2.1 | -9.7
11 | O=C(Cc1c(F)c(F)c(F)c(F)c1F)Nc1nc(-c2ccccc2)cs1 | -17.8 | -2.2 | 5.4 | -0.8 | 0.5 | nt | -73.4 | -78.5 | -31.6 | 35.7
12 | CN(C1CCCCC1)S(=O)(=O)c1ccc(C(=O)N2CCN(c3nc4ccccc4s3)CC2)cc1 | -2.6 | 3.2 | 12.4 | nt | 0.1 | nt | nt | nt | nt | 26.6
13 | Cc1ccccc1-n1ncc2c(SCC(=O)NCc3cccs3)ncnc21 | -6.2 | -1.5 | -6.5 | nt | -0.4 | 16.8% | nt | nt | nt | nt
14 | C=CCSc1nc2sc3c(c2c(=O)n1CC=C)CCc1ccccc1-3 | 7.5 | 3.9 | -1.6 | nt | 0.1 | nt | nt | nt | nt | 42.0
15 | Cc1cc(C)n2nc(C(=O)N3CCCC(Nc4ccc(C(C)C)cc4)C3)cc2n1 (centres undefined) | -10.4 | 1.2 | -5.5 | 5.4 | 1.1 | nt | 1.7 | 1.1 | 1.4 | -1.0
16 | CC1CN(C(=O)c2ccc([N+](=O)[O-])s2)CC(C)O1 (centres undefined) | nt | nt | -13.8 | 2.4 | -1.7 | nt | -6.7 | 1.3 | 0.0 | nt
17 | NC(=O)c1cc([N+](=O)[O-])ccc1NCc1cccc(N)c1 | nt | nt | -2.8 | -31.4 | 0.0 | nt | -9.9 | 7.4 | -3.6 | nt
18 | C=C(C)CNC(=S)N/N=C(\C)c1ccc(OC)cc1 | -5.9 | -0.2 | 3.5 | -9.1 | -0.3 | 8.5% | 6.7 | -12.0 | 5.4 | -9.4
19 | Oc1ccc2ccccc2c1C=NC1CCCCC1 | 3.4 | -0.5 | -12.6 | 4.4 | 0.5 | nt | -41.0 | -71.8 | -4.5 | -20.3
20 | COc1ccc(S(=O)(=O)Oc2ccc3cccc(N)c3c2)cc1 | 14.6 | 9.4 | 4.6 | 0.0 | -0.2 | nt | -16.9 | -14.0 | 4.2 | 11.8
21 | N#Cc1c(OCC(=O)c2ccccc2)nc2c(c1-c1ccco1)CCc1ccccc1-2 | 14.4 | -2.7 | -13.7 | nt | 1.0 | -0.9% | nt | nt | nt | 52.6
22 | Cc1ccccc1N1CCN(C2CCCN(C(=O)CCC(F)(F)F)C2)CC1 (centres undefined) | -2.1 | -2.2 | 3.3 | -5.2 | 0.2 | nt | -1.0 | 1.3 | 0.2 | -3.1
23 | O=C(CCc1ccccc1)NNc1ccc(F)cc1 | 1.2 | -3.8 | 2.2 | -0.4 | 0.0 | 5.0% | 0.1 | 5.3 | -1.1 | 20.8
24 | CCCCn1c(SC(C)C(=O)c2ccc(OC)cc2)nc2cc(S(N)(=O)=O)ccc21 (centres undefined) | -3.4 | -3.6 | 4.1 | nt | 0.2 | 28.8% | nt | nt | nt | 12.2
25 | CCN(CC)Cc1c(O)ccc2occ(C(=O)c3ccccc3)c12 | 6.0 | 0.8 | -3.6 | 1.4 | 0.5 | nt | 4.4 | 0.8 | 6.5 | -7.9
26 | CC1CCN(C(=O)CSCC(=O)O)CC1 | 9.3 | 4.7 | 3.1 | -2.5 | 0.0 | 12.0% | 9.8 | 0.3 | -1.6 | -1.1
27 | CC(=O)Nc1ccc(NC(=O)C2CCCN2C(=O)NC2CCCCC2)cc1 (centres undefined) | -2.0 | 1.5 | 5.0 | 1.2 | 0.3 | ? | 2.0 | 6.2 | -1.2 | -0.5
28 | CC1CCN(S(=O)(=O)c2cc3c4c(c2)CCN4C(=O)CC3)CC1 | -4.1 | ? | -3.0 | -1.7 | -0.5 | 3.5% | -0.4 | 2.1 | -2.9 | 6.0

High-throughput results deposited in PubChem BioAssay by several laboratories.
